# Compound activity deposited in PubChem BioAssay by National Center for Advancing Translational Sciences (NCATS).
# VDR inhibitor – Inhibitors of the vitamin D receptor (VDR): qHTS; Vitamin D3 receptor (Homo sapiens), P11473; VDR-SRC2-3 peptide fluorescence polarization, 2 h; Potency, µM, inactives show max response, negative = inhibition, actives largely listed as inhibitors; 400,000 compounds, 0.93% hits; active means well fitted inhibition curve with a large enough effect; inconclusive means small, poorly fitted or top-dose-only effect, or another doubt; inactive means no such curve, though single readings can be large or run the other way; further: series mostly up to about 120 µM
# Target sequence (P11473 whole entry, looked up): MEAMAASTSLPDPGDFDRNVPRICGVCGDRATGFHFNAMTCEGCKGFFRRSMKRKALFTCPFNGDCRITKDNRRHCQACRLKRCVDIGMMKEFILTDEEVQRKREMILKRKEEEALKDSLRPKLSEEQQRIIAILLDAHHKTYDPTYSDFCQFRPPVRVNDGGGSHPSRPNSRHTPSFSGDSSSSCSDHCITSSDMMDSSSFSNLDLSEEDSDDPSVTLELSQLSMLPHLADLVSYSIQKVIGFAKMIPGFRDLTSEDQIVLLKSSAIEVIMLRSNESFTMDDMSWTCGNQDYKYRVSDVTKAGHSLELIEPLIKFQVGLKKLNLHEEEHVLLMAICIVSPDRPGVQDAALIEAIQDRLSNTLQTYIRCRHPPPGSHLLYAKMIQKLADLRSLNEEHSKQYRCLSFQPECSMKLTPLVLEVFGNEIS
#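 Two reagent solutions held at 4 deg C in the dark were dispensed, compounds pinned at 23 nl, and the mixture incubated 2 h at room temperature. Read-out: fluorescence polarization of VDR–SRC2-3 peptide binding.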
# Starred values were filed as active, the others as inactive; ? = inconclusive; & = joins results of further samples. On the % scale 0 is the no-effect control and ±100 the full control effect; potency means the concentration at half of the fitted maximal effect. An excerpt; rates above refer to the full screens.
# Preview (2 entries):
SMILES,VDR inhibitor
Cc1ccc(OCC(=O)Nc2cccc(-c3nnc(-c4ccccc4)o3)c2)cc1,-25%
CCOC(=O)/C(C#N)=C\c1c(C)cc(C)c(COC(C)=O)c1C,?

# The whole of this part (from the top)
SMILES,VDR inhibitor
Cc1ccc(OCC(=O)Nc2cccc(-c3nnc(-c4ccccc4)o3)c2)cc1,-25%
CCOC(=O)/C(C#N)=C\c1c(C)cc(C)c(COC(C)=O)c1C,?
Cc1[nH]c(=S)c(C#N)c(-c2ccco2)c1C(=O)N(C)C,1%
COc1ccc(C(=O)NCCn2cc(SCC(=O)Nc3cccc(C)c3)c3ccccc32)cc1,20%
O=c1oc(/C=C/c2ccccc2)nc2sc3c(c12)CCC3,8%
Cc1nc([N+](=O)[O-])c(Br)n1Cc1ccccc1,-15%
Cn1c(CCN2CCOCC2)nc2cc(NC(=O)c3cccs3)ccc21,-16%
CC1(c2nnc(-c3ccc(Cl)cc3)o2)CC(c2cccnc2)=NO1 (configuration not stated),10%
Cn1cnnc1SCC(=O)Nc1ccc(S(=O)(=O)N2CCCC2)cc1,7%
O=C(NC1=NCCS1)c1ccccc1Br,8%
Cc1cc(Cl)ccc1OCC(=O)OCC(=O)N(CC(C)C)c1c(N)n(Cc2ccccc2)c(=O)[nH]c1=O,14%
Cc1ccccc1CSc1cn(CC(=O)N2CCCCCC2)c2ccccc12,6%
N/C(Cc1ccc(Cl)cc1Cl)=N\OC(=O)c1cccs1,-4%
COc1ccccc1NC(=O)Cc1nnc(SCC(=O)NC2CCCCC2)n1C,-5%
S=C(NCCc1ccccc1)NC1CCC(NC(=S)NCCc2ccccc2)CC1 (configuration not stated),-10%
COc1cc(CNCc2ccccn2)ccc1OCc1ccc(Cl)cc1Cl,9%
COc1ccccc1Nc1cc(C)nc2c(C)ccc([N+](=O)[O-])c12,-15%
CN1c2ccccc2Oc2nnc(Cl)cc21,-9%
CC(Sc1ccc2ccccc2c1)C(=O)NC(N)=O (configuration not stated),5%
COc1ccc([N+](=O)[O-])cc1NC(=O)CSCc1ccccc1C,-26%
Cn1cccc1C(=O)NC(=O)COC(=O)CNC(=O)c1ccc(Cl)cc1Cl,13%
COc1ccc(OC)c(/C=N/NC(=O)c2ccncc2)c1,-8%
Cc1nn(CC(=O)c2cccc(Cl)c2)c(C)c1[N+](=O)[O-],-7%
CC1CCCCC1NC(=O)CSc1nnc(-c2ccccc2)n1N (configuration not stated),-6%
CCC(Oc1ccc(Br)cc1Cl)C(=O)Nc1nnc(C2CC2)s1 (configuration not stated),-5%

# The results go on:
SMILES,VDR inhibitor
CCCN(CCC)S(=O)(=O)c1cc2c3c(c1)CCN3C(=O)CC2,4%
CCOC(=O)N/N=C(\C)c1ccc(Br)cc1,17%
CC1(c2ccc(OC(F)F)cc2)NC(=O)N(CC(=O)Nc2ccc3[nH]c(=O)[nH]c3c2)C1=O (configuration not stated),-1%
CCOC(=O)N1CCN(c2ncnc3c2[nH]c2ccc(OC)cc23)CC1,3%
COc1ccc(C(=O)N2CCC3(CCN(Cc4ccc(C#N)cc4)CC3)CC2)cc1,-2%
O=C1c2ccccc2NC2(CCCC2)N1O,-20%
Oc1ccccc1CN1CCC(C(O)(c2ccccc2)c2ccccc2)CC1,-11%
O=C(N/N=C/c1ccc2c(c1)OCO2)c1ccc(Br)o1,-3%
CC(CC12CC3CC(CC(C3)C1)C2)NCc1ccccc1O (configuration not stated),10%
CCOC(=O)c1ccc(NC(=O)c2ccc(NS(C)(=O)=O)cc2)cc1,-6%
CC(C)=N/N=C1/NC(=O)C(Cc2ccccc2)S1 (configuration not stated),4%
COc1ccc(S(=O)(=O)NCC2CCCO2)cc1NC(=O)c1ccccc1 (configuration not stated),7%
COc1cc2c(cc1OC)CN(c1nc(CN3CCOCC3)nc3sc4c(c13)CCC(C)C4)CC2 (configuration not stated),-12%
Cc1cccc(-c2oc3ccccc3c2C#CCCO)c1,-8%
O=C(NCCc1ccc(Cl)cc1)C1CCN(C(=O)c2ccc(F)cc2)CC1,1%
CCc1noc(C)c1C(=O)NCCc1ccc(OC)c(OC)c1,11%
COc1ccc(-c2cc3cccc(OC)c3oc2=O)cc1,19%
O=C(Nc1ncc(S(=O)(=O)c2ccc([N+](=O)[O-])cc2)s1)c1cccc2ccccc12,-2%
C=CCOC(=O)C1=C(C)NC(SCC(=O)Nc2nccs2)=C(C#N)C1c1cccs1 (configuration not stated),-15%
O=C(Oc1ccc(N(Cc2cccs2)C2=NS(=O)(=O)c3ccccc32)cc1)c1ccc(Cl)cc1,-11%
O=S(=O)(Oc1ccccc1-c1ccccc1)c1ccccc1,-14%
CN(C)CCOC(=O)c1sc2ccccc2c1Cl,0%
O=C(CN1C(=O)NC2(CCCc3ccccc32)C1=O)c1ccc(F)cc1 (configuration not stated),-9%
COC(=O)c1cc(-c2ccc3c(c2)OCO3)nc2ccccc12,11%
Cc1ccc(CNC(=O)CSc2ccsc2[N+](=O)[O-])cc1,-6%

# Retrieved by structure from the list above:
SMILES,VDR inhibitor
N/C(Cc1ccc(Cl)cc1Cl)=N\OC(=O)c1cccs1,-4%
Cn1c(CCN2CCOCC2)nc2cc(NC(=O)c3cccs3)ccc21,-16%

# The list continues:
SMILES,VDR inhibitor
CC(=O)c1cccc(NC(=O)CSc2n[nH]c(=O)n2C2CC2)c1,2%
O=S(=O)(NC(=S)c1ccccc1)c1ccc(F)cc1,?
CCOc1cccc(C(=O)N(Cc2ccc(N(C)C)cc2)CC2CCCO2)c1 (configuration not stated),11%
O=C(NCCc1ccccc1)c1ccc2c(=O)[nH]c3c(C(=O)NCC4CCCO4)sc(=S)n3c2c1 (configuration not stated),79µM*
COc1cc(CCC(=O)OCC(=O)Nc2ccc(C)cc2Br)cc(OC)c1OC,-6%
CC1(c2ccc(Cl)cc2Cl)NC(=O)N(CC(=O)NC2CCCCC2)C1=O (configuration not stated),9%
CCCCNC(=O)Cn1cnc2sc(C(=O)OCC)c(C)c2c1=O,-17%
Cc1c(C(=O)c2ccc(Cl)c([N+](=O)[O-])c2)c2ccccn2c1CCC#N,9%
CCOC(=O)C(NC(=O)CCl)(Nc1sc(C)c(CC)c1C#N)C(F)(F)F (configuration not stated),-7%
CCOc1ccc(C(=O)NC(C(=O)NCC(c2cccs2)N(C)C)C(C)C)cc1 (configuration not stated),-3%
COc1ccccc1NC(=O)c1cc2c(=O)n(Cc3cccs3)ccc2nc1C,-7%
CCc1noc(C)c1C(=O)N1CCC(CCC(=O)Nc2cccc(OC)c2)CC1,3%
COc1cccc(NC(=O)CN(C)CC(=O)c2c(N)n(Cc3ccccc3)c(=O)n(C)c2=O)c1,-1%
Cc1cccc(CN2C(=O)c3ccccc3Sc3ccc(C(=O)NC4CCCCC4)cc32)c1,-7%
O=C(Nc1ccccc1O)c1c(O)c2c([nH]c1=O)CCCC2,1%
Cc1nc(N)nc(COc2ccccc2)n1,-5%
CCN(CC(=O)Nc1c(F)cccc1F)C(=O)c1ccc(=O)n(Cc2ccccc2)n1,4%
Cc1cc[n+](Cc2ccc([N+](=O)[O-])cc2)cc1,9%
COCCCn1c(C)nnc1-c1cnn(-c2ccccc2)c1N,15%
CC(=O)NS(=O)(=O)c1ccc(NC(=O)CCC2CCCC2)cc1,-8%
Cc1cc(C(=O)CSc2nc3ccccc3c(=O)n2C)c(C)n1Cc1ccc2c(c1)OCO2,-2%
O=C1NC2(CCCC2)C(=O)N1CCS(=O)(=O)Oc1ccccc1,-7%
COc1ccc2c(c1)c(C(=O)CN1CCN(Cc3ccccc3)CC1)c(C)n2C,-4%
CC1CCCC(NC(=O)COC(=O)c2ccc3c(c2)OCCO3)C1C (configuration not stated),-13%
COc1ccc(S(=O)(=O)N/N=C\c2ccccc2F)cc1,7%

# Next results follow.
SMILES,VDR inhibitor
CN(C)c1cc[n+](CC(=O)c2ccc(Br)cc2)cc1,-7%
COc1ccc(CCNC(=O)c2ccc(CN3CCC(Cc4ccccc4)CC3)cc2)cc1,5%
O=C(Nc1nnc(-c2cc(Cl)ccc2Cl)o1)c1ccco1,6%
CN1CCN(C(=O)c2ccc3c(c2)NC(=O)/C(=C/c2ccccc2)S3)CC1,6%
Cc1ccc(NC(=O)N2CCCC2c2cccs2)cc1 (configuration not stated),-13%
Cc1cccc(C)c1NS(=O)(=O)c1ccc(OCCNS(C)(=O)=O)cc1,-22%
O=C(c1ccc(NS(=O)(=O)c2ccc(F)cc2)cc1)N1CCCCCC1,-9%
O=C(COc1ccc(Cl)cc1Cl)N1CCCCCC1,18%
CCc1nc(-c2cc(S(=O)(=O)N3CCN(c4ccccc4F)CC3)ccc2OC)no1,-2%
CN(CC(=O)NCCc1ccccc1)S(=O)(=O)c1ccc(Br)cc1,-1%
O=C1CCCCN1CCCC(=O)N1CCCC(Nc2ccccc2)C1 (configuration not stated),-14%
Cc1ccc(C(=O)NC2CCCCCCC2)c(Cl)c1,-11%
O=C(NC1CCCCCC1)c1ccc2c(c1)sc1nc(-c3ccccc3)cn12,14%
O=C1C2C3C=CC(C3)C2C(=O)N1c1ncn[nH]1 (configuration not stated),-3%
COc1cc(/C=N/NC(=O)CCC(=O)Nc2ccc(F)cc2)ccc1O,-7%
OC(c1ccccc1)C1CN(Cc2ccccc2)CCC1(O)c1ccccc1 (configuration not stated),-8%
CCOc1ccc(N2C(=O)Nc3ccccc3C2(O)C(=O)N2CCN(c3ccccn3)CC2)cc1 (configuration not stated),5%
CCCNC(=O)NC1CCCc2ccccc21 (configuration not stated),-6%
Cc1oc(S(=O)(=O)N2CCOCC2)cc1C(=O)Nc1ccc(Cl)cc1,5%
N#Cc1cc2c(nc1SCc1cccnc1)CCCCC2,-12%
O=C(N/N=C/c1ccco1)c1cc(-c2ccccc2)n[nH]1,2%
CCOc1ccccc1N(CC(=O)NCCc1ccc(OC)c(OC)c1)S(=O)(=O)c1ccccc1,-4%
COc1ccccc1-c1sc2ccccc2c1C#CC1(O)CCCCC1,-27%
COc1ccc(C(C)=O)cc1CN1CCCCC1,13%
O=C(C1CCN(S(=O)(=O)c2ccc(-n3cnnn3)cc2)CC1)N1CCCCC1,-3%

# Another view of some results above:
COc1cc(/C=N/NC(=O)CCC(=O)Nc2ccc(F)cc2)ccc1O
  VDR inhibitor: -7%
OC(c1ccccc1)C1CN(Cc2ccccc2)CCC1(O)c1ccccc1 (configuration not stated)
  VDR inhibitor: -8%
CCOc1ccc(N2C(=O)Nc3ccccc3C2(O)C(=O)N2CCN(c3ccccn3)CC2)cc1 (configuration not stated)
  VDR inhibitor: 5%
CCCNC(=O)NC1CCCc2ccccc21 (configuration not stated)
  VDR inhibitor: -6%

# The listing continues.
SMILES,VDR inhibitor
Cn1c(SCC(=O)c2ccccc2)nnc1C1COc2ccccc2O1 (configuration not stated),-4%
CCc1ccc(-c2nn(-c3ccccc3)cc2CSC(=N)N)cc1,-11%
O=C(Nc1ccc(Cl)cc1)C1CCN(C(=O)c2ccco2)CC1,17%
Cc1nn(Cc2c(Cl)cccc2Cl)c(C)c1NC(=O)c1sc2ccccc2c1Cl,2%
CCOc1ccc(N(CC(=O)N2CCCC2)S(=O)(=O)c2c(C)noc2C)cc1,-1%
COc1cccc(/C(O)=C2/C(=O)C(=O)N(CCCN3CCOCC3)C2c2ccncc2)c1 (configuration not stated),3%
Oc1ccc(/C=N/Nc2ccc(C(F)(F)F)cn2)cc1O,7%
Cc1cc(Cl)cc(Cl)c1OCC(=O)NCc1ccco1,?
Cc1nc(S(=O)(=O)Nc2ccccc2C(=O)NCC2CC2)cn1C,2%
CSc1cccc(NCc2ccc([N+](=O)[O-])cc2)c1,-4%
Cc1c(C(=O)N2CCN(c3ccccc3)CC2)sc2nc3n(c(=O)c12)CCC3,-2%&5%
COc1cccc(NC(=O)N(CCN(C)C)C(C)c2cccnc2)c1 (configuration not stated),-19%
CC(=O)c1cccc(NC(=O)C2C3CCC(C3)C2C(=O)O)c1 (configuration not stated),-7%
COc1cccc(N2CCN(C(=O)C3C4C=CC5(CN(Cc6ccccc6Cl)C(=O)C35)O4)CC2)c1 (configuration not stated),15%
CCCN1CCC(NC(=O)Nc2cccc3ccccc23)CC1,-9%
O=C(N/N=C/c1ccccn1)c1ccco1,18%
Cc1nc(=O)c(-c2ccccc2)c(C)n1-c1ccc(Br)cc1,3%
O=C(c1cccnc1NCc1ccccc1)N1CCOCC1,2%
Cc1nc(N2CCCCC2)c2sc(=S)n(C)c2n1,4%
Cc1ccc(NCc2ccc([N+](=O)[O-])s2)cc1,-17%
O=C(N/C(=C\c1ccc([N+](=O)[O-])cc1)C(=O)N1CCCCC1)c1ccccc1,-2%
CCOC(=O)C1(Cc2ccccc2C)CCCN(S(C)(=O)=O)C1 (configuration not stated),-19%
O=C(O)c1ccc(CN2C(=O)c3ccc(C(=O)O)cc3C2=O)cc1,7%
CC1CN(c2cnn(C(C)C)c(=O)c2Cl)CC(C)O1 (configuration not stated),13%
Cc1ccccc1C(=O)NNC(=O)/C=C/c1ccccc1,5%
CCc1ccc2nc(N(CCCN(C)C)C(=O)c3ccc(S(=O)(=O)N(C)C4CCCCC4)cc3)sc2c1,-1%
CCOC(=O)CNC(=O)N1CCCC(C(=O)c2cccc(Cl)c2)C1 (configuration not stated),-5%
COc1ccc([C@H]2CC(=O)C=C(c3ccccc3-c3ccccc3)C2)cc1,8%
Cc1nn(CC(=O)NC(=O)NC2CCCC(C)C2C)c(=O)c(C#N)c1C (configuration not stated),-10%
